A647 fluor – A647 region autofluorescence | Compound fluorescence, A647 channel (570/671 nm), Tris buffer | max dye-equivalent concentration, M | 59,000 tested, under 10 active; active means above 1 µM dye equivalent; inconclusive means 0.1 to 1 µM; inactive means 0.1 µM or less;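 also: values scaled relative to a standard on each plate; highest value over a series up to 38 µM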
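Each compound's intrinsic fluorescence at 570 nm excitation and 671 nm emission is measured across its concentration series in 100 mM Tris, pH 8.0, after 15 min at room temperature, and reported relative to an A647 curve.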
Resorufin fluor – resorufin region autofluorescence. Compound fluorescence, resorufin region 547/598 nm, buffer; stronger effect = higher value. max dye-equivalent concentration, M. 59,000 tested, 0.04% active. AID 588; active = above 10 nM dye equivalent; inconclusive = 1 to 10 nM; inactive = 1 nM or less; a few of its hits are not listed in these tables; also: highest value over a series up to 38 µM
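Read-out: intrinsic compound fluorescence at ex 547/em 598 nm after 15 min at RT in pH 8.0 Tris (100 mM). Values expressed as resorufin-equivalent concentration from per-plate standard series.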
A488 autofl – A488 region autofluorescence. max dye equivalency, M. compound autofluorescence, A488 spectral region, dye equivalency; stronger effect = higher value. 59,000 tested, 0.1% active; active = above 10 nM dye equivalent; inconclusive = 1 to 10 nM; inactive = 1 nM or less; about half of its hits are not listed in these tables;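 also: highest value over a series up to 38 µM; compound alone in buffer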
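Compounds pin-transferred into 100 mM Tris buffer, pH 8.0, incubated 15 min at room temperature, then imaged with 480 nm excitation/540 nm emission filters. Fluorescence converted to Alexa 488 dye-equivalent concentration via an on-plate six-point A488 standard curve.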
AID923 – qHTS Assay for Allosteric/Competitive Inhibitors of Caspase-1: Spectroscopic Profiling in AFC Spectral Region. compound fluorescence, AFC spectral region (405/520 nm); almost no hit is shown here. Potency, µM (highest dose often 57.5 µM), inactives show top-dose fluorescence increase, most hits filed as activators. 75,000 tested, 1.1% active; active = well fitted activation curve with a large enough effect; inconclusive = small, poorly fitted or top-dose-only effect;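 also: potency is read from the fitted curve at half-maximal effect; 0% is about no effect; scaled to a free AFC standard on each plate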
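Compound autofluorescence profiled at 405 nm ex/520 nm em during kinetic caspase 1 run (50 nM enzyme, 5 uM Ac-WEHD-AFC, HEPES pH 7.5, 10 mM DTT). Titration up to 57 uM; baseline from regression intercept, normalized to AFC standard curve.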
TSHR agonist – agonists of human thyroid stimulating hormone receptor; Potency, µM (doses to about 57.1 µM), inactives show top-dose activation, actives largely listed as activators; 73,000 tested, 0.48% active; HEK293-CNG-TSHR cells (CNG channel as cAMP sensor), membrane potential dye, cAMP; P16473; active = well fitted activation curve of enough size with the parental cells flat; inconclusive = any curve in the parental cells; inactive = parental cells flat and receptor cells flat or falling; also: potency is read from the fitted curve at half-maximal effect; % of control where 0% means no effect; weak receptor curves with flat parental cells got no call and are not listed
Target sequence (P16473 whole entry, looked up): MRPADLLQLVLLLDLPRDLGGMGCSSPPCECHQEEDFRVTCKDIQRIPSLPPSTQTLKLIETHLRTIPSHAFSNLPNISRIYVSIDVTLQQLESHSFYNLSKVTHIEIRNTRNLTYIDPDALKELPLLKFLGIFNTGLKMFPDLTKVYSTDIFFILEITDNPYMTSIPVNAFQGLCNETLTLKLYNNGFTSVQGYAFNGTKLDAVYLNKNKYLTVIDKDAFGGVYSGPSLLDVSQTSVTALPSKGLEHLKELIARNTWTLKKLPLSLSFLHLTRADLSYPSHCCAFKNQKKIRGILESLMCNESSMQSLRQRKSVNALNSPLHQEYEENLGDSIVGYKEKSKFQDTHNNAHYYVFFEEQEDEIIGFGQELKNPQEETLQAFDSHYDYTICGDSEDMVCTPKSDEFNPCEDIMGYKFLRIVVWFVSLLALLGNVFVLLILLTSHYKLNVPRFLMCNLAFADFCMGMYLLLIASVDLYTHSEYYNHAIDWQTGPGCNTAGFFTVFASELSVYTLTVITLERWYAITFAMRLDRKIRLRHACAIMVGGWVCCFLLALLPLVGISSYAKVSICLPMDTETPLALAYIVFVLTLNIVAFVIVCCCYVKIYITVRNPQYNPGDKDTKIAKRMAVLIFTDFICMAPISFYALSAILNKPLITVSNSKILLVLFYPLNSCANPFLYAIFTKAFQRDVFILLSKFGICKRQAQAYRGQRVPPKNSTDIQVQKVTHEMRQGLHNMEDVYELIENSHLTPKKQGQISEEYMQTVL
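HEK 293 cells stably expressing TSHR and a modified CNG channel, with CNG-only parental cells as counterscreen, were preloaded 60 min at room temperature with membrane potential dye containing 100 uM RO 20-1724. Compound exposure was 30 min, and depolarization was read as fluorescence at 590 nm.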
The depositor's hits bear a star; i = inactive; ? = inconclusive; · = not tested or not shown; [ ] = dose if it differs, or a comment.

SMILES	A647 fluor	Resorufin fluor	A488 autofl	AID923	TSHR agonist
CC1CCN(C(=O)C2CCN(C(=O)c3cc4sccc4n3Cc3ccc(F)cc3)CC2)CC1	8.5e-09	i	i	-0.1%	?
COc1cc(C)nc(Oc2ccc(OCCOc3ccc(C)cc3)nn2)n1	2.4e-09	i	i	·	·
COC(=O)c1cc(Br)c(=O)n(-c2nccs2)c1	3.1e-08	i	i	·	·
Cc1csc2nc(CSc3ccc(Cl)cc3)cn12	1e-09	i	i	-0.7%	?
COc1ccc(N2Cc3cccc(C(=O)N4CCN(C(=O)c5ccco5)CC4)c3C2=O)cc1	·	·	·	2.0%	-7%
COc1cc2c(cc1OC)-c1cc(NC3CCCCCC3)nc(=O)n1CC2	2.5e-08	i	i	2.3%	10µM*
CCN1C(=O)C(CC(=O)NCc2ccc(Cl)cc2)N(CC)C1=O (stereo not drawn)	3.9e-08	i	i	-0.1%	0%
CC1CCC2C(=O)N3C(CCC(C)[C@@H]3c3cccc(N4CCOCC4)c3)C(=O)N2C1c1cccc(N2CCOCC2)c1 (stereo partly drawn)	·	·	·	0.2%[11.5 µM]	-1%[11.4 µM]
Cc1oc(-c2ccc(Cl)cc2)[n+]([O-])c1C	1e-09	i	i	1.6%	0%
Clc1ccccc1-c1nn2c(-c3ccccn3)nnc2s1	1.3e-09	i	i	·	·
COc1ccc(C(=O)NCc2cn3ccsc3n2)cc1OC	·	·	·	-1.6%	3%
CCC(=O)n1nc(-c2ccccc2)nc1NCc1ccccc1	2.3e-09	i	i	0.8%	?
COC(=O)c1nnn(-c2ccccc2)c1N	2e-08	i	i	-0.3%	-2%
C[C@@](N)(C(=O)O)c1ccc(S(=O)(=O)O)cc1	·	·	·	-2.1%	1%
Cc1ccc(NC(=O)C(C)N2C(=O)C3CC=C(Cl)CC3C2=O)cc1 (stereo not drawn)	1.1e-09	i	i	0.0%	5%
O=C(NCc1ccccc1)c1cccc(NC(=O)c2ccco2)c1	·	·	·	0.2%	6%
O=C(c1ccccc1)N(CCN1CCOCC1)C1(C(=O)Nc2ccccc2)CCCCC1	3.2e-09	i	i	0.3%	?
C=CCn1c(SCc2csc(C)n2)nc2sc3c(c2c1=O)CCCCC3	2.9e-08	i	i	2.1%	?
CC(=O)Nc1ccc(NC(=O)c2ccccc2N(C)S(C)(=O)=O)cc1	2.1e-09	i	i	-2.3%	?
COC(=O)c1cc(Br)c(=O)n(Cc2ccncc2)c1	1e-09	i	i	1.1%	-1%
O=C(O)C1CCCCC1C(=O)Nc1cnn(Cc2ccccc2)c1 (stereo not drawn)	1e-09	i	i	0.3%	-2%
O=C(NCc1cn2ccsc2n1)Nc1cccc(Cl)c1	2e-08	i	i	-1.4%	16%
O=C(COC(=O)C1(c2ccccc2)CC1)N1CCN(c2ccc(F)cc2)CC1	3e-08	i	i	-0.1%	9%
O=C(NCc1cccs1)C1CCN(c2nc3ccccc3o2)CC1	2.6e-09	i	i	-1.1%	3%
CCn1c(SCC(=O)c2cccs2)nnc1-c1ccco1	1e-09	i	i	-0.7%	4%
O=C(O)C1CCCCC1C(=O)OCCCCOC(=O)C1CCCCC1C(=O)O (stereo not drawn)	·	·	·	-0.4%	4%[11.4 µM]
CC(C)(C)OCC1CO1 (stereo not drawn)	·	·	·	4.5%	4%
OC(COc1c(Cl)cc(Cl)cc1Cl)CN1CCCCC1 (stereo not drawn)	·	·	·	7.2%	?
O=C(Nc1ccc2c(c1)C(=O)N(C1CCCCC1)C2=O)C1CCCO1 (stereo not drawn)	1e-09	i	i	1.1%	-8%
Cn1ccnc1SC(=O)N1c2ccccc2Sc2ccccc21	·	·	·	0.0%	14%[11.4 µM]
CCCCn1c(SCC(=O)N2CCC(C(=O)OCC)CC2)nc2cc(S(N)(=O)=O)ccc21	1.7e-08	i	i	-0.3%	6%
COc1cc(NS(=O)(=O)c2ccc(NC(=O)COc3ccccc3C)cc2)nc(OC)n1	2.1e-08	i	i	0.3%	2%
N[C@@H]1C=CC=C(C(=O)O)C1	2.1e-09	i	i	-5.0%	·
CC1(C)CC(=O)C2=C(C1)Nc1[nH]n(-c3ccccc3)c(=O)c1C2c1ccc2c(c1)OCO2 (stereo not drawn)	3.2e-08	i	i	-2.1%	2%
CCOC(=O)c1ccc(Cn2cnc3ccccc3c2=O)cc1	5.8e-09	i	i	-2.2%	4%
Cc1oc(-c2ccc(Cl)cc2)nc1CN1CCC(C(=O)NCc2cccnc2)CC1	2.1e-08	i	i	1.9%	4%
c1ccc2c(-n3cccn3)cccc2c1	6.2e-08	i	i	-0.1%	-1%
COC(=O)c1cc(OC)c(OC)cc1NC(=O)C1CCC(=O)N1S(=O)(=O)c1ccc(C)cc1 (stereo not drawn)	4.2e-08	i	i	1.4%	52%
Cc1ccccc1C(=O)NC1CC(C)(C)NC(C)(C)C1	9.5e-09	i	i	-1.2%	-13%
O=C(CSc1nc2c(sc3ccccc32)c(=O)n1Cc1ccco1)NCC1CCCO1 (stereo not drawn)	1e-09	i	i	1.5%	5%
Cc1cc2cc(CNC(=O)CC(C)C)ccc2n1C	1.6e-08	i	i	7.3%	-3%
COc1ccc(CC(=O)OCC(=O)Nc2c(C)n(C)n(-c3ccccc3)c2=O)cc1	4.5e-09	i	i	-0.4%	-2%
CCC(=O)Nc1ccc(C(=O)Cn2nc(C(=O)O)c3ccccc3c2=O)cc1	1.1e-08	i	i	0.8%	0%
O=C(Nc1nc2ccccc2n1CCN1CCCCC1)c1ccco1	4.7e-09	i	i	-0.1%	?
Cc1cc(NC(=O)CCCC(=O)N(CC(=O)NC2CCCCC2)c2ccccc2)no1	2.9e-08	i	i	9.8%	?
O=C(C1CCC(=O)N1Cc1cccnc1)N1CCN(c2ccc(F)cc2)CC1 (stereo not drawn)	·	·	·	1.6%	8%
CCN(CC)S(=O)(=O)c1cccc(-c2nnc(SCC(=O)c3cc(C)n(C)c3C)o2)c1	1.1e-09	i	i	1.2%	?
CCCS(=O)(=O)NCCc1cc2c(OC)ccc(OC)c2[nH]c1=O	1e-09	i	i	-0.4%	-3%
COc1cccc(OC)c1OCCCCN1CCCC1	·	·	·	0.0%	7%
COc1nnc(OC)c2ccccc12	3.8e-09	i	i	0.6%	13%
O=C(NC1CCCC1)C(c1ccccn1)N(C(=O)c1csnn1)C1CC1 (stereo not drawn)	4.4e-09	i	i	1.7%	-2%
O=C(CN1CCN(CCC(=O)Nc2ccccc2F)CC1)Nc1ccc(Cl)cc1	3.8e-08	i	i	-0.4%	-5%
O=C(CCn1cccc1)NCCc1ccc(Cl)cc1	·	·	·	0.4%	?
CC(=O)Nc1cccc(Oc2nc(C)cc(C)c2C#N)c1	·	·	·	-1.1%	5%
CCCCOC(=O)Nc1ccc(S(=O)(=O)Nc2nc(C)cc(C)n2)cc1	1e-09	i	i	·	·
O=C(Nn1cnnc1)c1ccccc1-c1ccccc1	3.8e-08	i	i	1.2%	0%
Cc1cc(C)n(-c2ccc(C(=O)OCn3nnc4ccccc4c3=O)cc2)n1	4.1e-09	i	i	-0.5%	10%[11.4 µM]
O=C(Nc1nnc(COc2ccccc2)s1)c1ccco1	1.1e-08	i	i	-1.7%	0%
COc1ccc(N2CCN(C(=O)Cc3nn(C)c(=O)c4ccccc34)CC2)cc1	1.1e-08	i	i	0.4%	·
CCOC(=O)c1[nH]c(C)c(C(=O)N(C)Cc2ccccc2)c1C	2.5e-09	i	i	-0.8%	0%[11.4 µM]
Additional entries
SMILES	A647 fluor	Resorufin fluor	A488 autofl	AID923	TSHR agonist
CN1CCN(C2=C(Cl)C(=O)N(c3cccc(Cl)c3)C2=O)CC1	·	·	·	-1.5%	?
CCOC(=O)N1CC=C2C(C#N)=C(N)C(C#N)(C#N)[C@H](c3ccccc3OCC)[C@H]2C1	3.7e-09	i	i	5.9%	?
COc1ccc(Nc2nccc3c2nnn3C)cc1	3.4e-09	i	i	-1.7%	-3%
CCCc1cc(C(=O)Nc2cc(C)nn2-c2ccccc2)no1	·	·	·	3.4%	4%
Cc1nc(NC(C)c2ccccc2)c2oc3ccccc3c2n1 (stereo not drawn)	1.5e-08	i	i	3.6%	?
CC[C@@H](C)[C@H]1O[C@]2(CC[C@@H]1C)C[C@@H]1C[C@H](C/C=C(/C)[C@H](O[C@@H]3C[C@H](OC)[C@H](O[C@@H]4C[C@H](OC)[C@@H](O)[C@H](C)O4)[C@H](C)O3)[C@@H](C)/C=C\C=C3CO[C@@H]4[C@H](O)C(C)=C[C@@H](C(=O)O1)[C@]34O)O2 (tested in a mixture with another compound)	·	·	·	0.0%	-2%
N#Cc1nc(COc2ccc(Br)cc2)oc1NCCCn1ccnc1	5e-09	i	i	-0.3%	·
Cc1cnc(NC(=O)CN2CCN(c3ccccn3)CC2)s1	3e-09	i	i	-1.1%	-4%[11.4 µM]
CNC(=O)CCC(=O)Nc1ccc(C(=O)OC)cc1	2.4e-08	i	i	1.0%	5%
Cc1ccc2oc(-c3ccc(NC(=O)CC(C)C)cc3)nc2c1	·	·	·	0.4%	2%
CCCCN(CC)CCNS(=O)(=O)c1cccc2cccnc12	·	·	·	1.3%	12%
N#CCn1c(C2CCCCC2)nc2ccccc2c1=O	1e-09	i	i	3.8%	16%
O=C(Cn1[nH]c(=O)c2ccccc2c1=O)Nc1cccc(-c2nnc3n2CCCCC3)c1	1e-09	i	i	-1.1%	3%
N#CC(C#SN)=C1CCCCC1	2.9e-08	i	i	4.7%	1%
O=C(NCc1cccnc1)c1cccc(C(F)(F)F)c1	1e-09	i	i	0.0%	-1%
CC1(C)Cc2noc(N)c2C(C)(C)N1OC(=O)c1scc2c1OCCO2	4e-09	i	i	0.3%	-2%
COc1ccc(C)cc1Cn1c(S(C)(=O)=O)nc2ccccc21	3.1e-09	i	i	-0.5%	?
CC1CCN(C(=O)COc2ccccc2F)CC1	·	·	·	2.5%	6%
O=C(c1cccc(F)c1)N1CCC2(CC1)CN(C(c1ccccc1)c1ccccc1)C2	1e-09	i	i	0.5%	-4%
COc1ccc(C2C3=C(CCCC3=O)Nc3nc4ccccc4n32)c(OC)c1OC (stereo not drawn)	4.8e-09	i	i	5.3%	1%

Quoted at random: 4 entries already listed
SMILES	A647 fluor	Resorufin fluor	A488 autofl	AID923	TSHR agonist
COc1ccc(C2C3=C(CCCC3=O)Nc3nc4ccccc4n32)c(OC)c1OC (stereo not drawn)	4.8e-09	i	i	5.3%	1%
CCCc1cc(C(=O)Nc2cc(C)nn2-c2ccccc2)no1	·	·	·	3.4%	4%
CN1CCN(C2=C(Cl)C(=O)N(c3cccc(Cl)c3)C2=O)CC1	·	·	·	-1.5%	?
COc1ccc(C)cc1Cn1c(S(C)(=O)=O)nc2ccccc21	3.1e-09	i	i	-0.5%	?

The list continues:
SMILES	A647 fluor	Resorufin fluor	A488 autofl	AID923	TSHR agonist
CCCc1cc(=O)n2[nH]c(NCc3cccs3)nc2n1	5.6e-09	i	i	-2.6%	-1%
C=C(CC1([C@@H](NP(=O)(c2ccccc2)c2ccccc2)[C@H]2C[C@@H]2CCCC)CC1)c1cccc(OC)c1	·	·	·	3.4%	?
O=[N+]([O-])c1ccc2cn[nH]c2c1	·	·	·	-1.0%	16%
Cc1c(NC(=O)CN2c3cccc4cccc(c34)S2(=O)=O)c(=O)n(-c2ccccc2)n1C	1e-09	i	i	-0.6%	?
CCC(CC)n1[nH]c(=O)cc1N	1.7e-09	i	i	·	·

Laid out differently: results already given
Values run as follows: A647 fluor, Resorufin fluor, A488 autofl, AID923, TSHR agonist
Cc1c(NC(=O)CN2c3cccc4cccc(c34)S2(=O)=O)c(=O)n(-c2ccccc2)n1C
→ 1e-09, i, i, -0.6%, ?
CCC(CC)n1[nH]c(=O)cc1N
→ 1.7e-09, i, i, ·, ·

This is a subset; rates above refer to the full screens.
